Assay outcomes as filed in PubChem BioAssay.
Ecoli growth: E. coli growth inhibition; OD600 absorbance (no concentration beside the values); AID 1053175; Escherichia coli growth, OD600, 23 h; stronger effect = lower value; 330,000 compounds, 0.21% hits;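 active = OD600 absorbance below the run mean of sample wells minus 3.6 SD, in any replicate, cut at about 0.56 in these data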;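 note: stock transfer was 300 nL into about 60 µL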
A1 inh: inhibitors of the anti-apoptotic protein A1, read as caspase activation; 330,000 compounds, 0.066% hits; MEF A1-2A-BIM cells, Caspase-Glo 3/7 luminescence, 3 h; percent of clofoctol response, vehicle zero; AID 2462; caspase activation, % (no concentration beside the values);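 active = over half of replicate activation scores above 10%, or exactly half above 10 with the replicate mean above 10; inconclusive = replicate mean below 10 yet half the replicates above 10; inactive = over half of replicates below 10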;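 note: wells of about 30 µL received 50 nL stock; many hits fall short of the cut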
MLL AF4-AF9 inh: MLL-AF4/AF9 protein interaction inhibition. AlphaScreen, biotin-AF4 peptide binding to FLAG-AF9. inhibition, % at 10 µM. 350,000 compounds, 0.47% hits. AID 651704;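 active = every replicate reaching a set inhibition limit, whatever the replicate mean, cut at about 25% in these data; inconclusive = mean inhibition reaches that limit but some replicates miss it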;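 note: 0% = plate neutral control median and 100% = total signal loss; the record names both 10 and 1 µM as test concentration; the first replicate is given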
Target sequence (P42568 whole entry, looked up): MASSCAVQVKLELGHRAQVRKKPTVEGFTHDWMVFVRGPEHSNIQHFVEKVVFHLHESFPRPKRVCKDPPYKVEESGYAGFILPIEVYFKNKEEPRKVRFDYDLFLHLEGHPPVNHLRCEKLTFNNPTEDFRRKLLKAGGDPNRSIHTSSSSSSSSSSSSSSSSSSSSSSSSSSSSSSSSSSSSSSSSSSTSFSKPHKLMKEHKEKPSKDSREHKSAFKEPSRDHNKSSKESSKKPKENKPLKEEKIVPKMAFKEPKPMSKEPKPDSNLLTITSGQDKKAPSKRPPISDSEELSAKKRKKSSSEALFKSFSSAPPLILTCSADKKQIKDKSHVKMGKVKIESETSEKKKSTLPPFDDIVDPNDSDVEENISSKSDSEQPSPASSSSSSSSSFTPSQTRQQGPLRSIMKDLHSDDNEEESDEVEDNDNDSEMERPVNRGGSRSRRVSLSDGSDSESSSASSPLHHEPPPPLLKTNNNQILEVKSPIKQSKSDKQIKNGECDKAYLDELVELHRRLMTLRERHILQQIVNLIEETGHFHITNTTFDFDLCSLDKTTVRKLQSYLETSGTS
UCH37 DUB inh: inhibitors of human deubiquitinating enzyme UCH37. AID 588478. purified proteasome/UCH37, Ub-AMC cleavage fluorescence. inhibition, % (no concentration beside the values). 330,000 compounds, 0.33% hits;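 active = mean of two replicates above 20%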;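 note: 0% = compound-free wells with enzyme and 100% = wells lacking proteasome; stock transfer was 100 nL into about 20 µL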
Target sequence (Q9Y5K5 whole entry, looked up): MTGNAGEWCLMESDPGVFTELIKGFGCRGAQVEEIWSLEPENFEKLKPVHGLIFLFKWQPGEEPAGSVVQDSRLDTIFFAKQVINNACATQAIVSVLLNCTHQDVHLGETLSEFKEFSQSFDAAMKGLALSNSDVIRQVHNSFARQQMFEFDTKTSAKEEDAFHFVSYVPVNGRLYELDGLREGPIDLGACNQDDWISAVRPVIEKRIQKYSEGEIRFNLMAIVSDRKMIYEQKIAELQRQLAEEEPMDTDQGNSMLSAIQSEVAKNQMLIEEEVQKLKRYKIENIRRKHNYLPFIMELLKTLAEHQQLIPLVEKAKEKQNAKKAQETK
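Reagent: Ub-AMC substrate; assay system: Proteasome-associated human UCH37 deubiquitinase; controls: no-proteasome and no-compound wells; read-out: % inhibition of Ub-AMC cleavage fluorescence; timing: 30 min preincubation with enzyme, 25 min cleavage at room temperature; signal: AMC fluorescence from Ub-AMC cleavage, excitation 355 nm, emission 460 nm; buffer or medium: Tris-HCl pH 7.4 plus ovalbumin, ATP-MgCl2, DTT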
Ecoli rRNA inh: inhibitors of bacterial rRNA selective over humanized ribosomes; AID 720706; GFP signal change (wild-type ribosome), % (test concentration not listed); 350,000 compounds, 1.6% hits; E. coli WT GFP vs humanized-ribosome RFP mutants, fluorescence, 24 h; stronger effect = lower value; DMSO median 0, no signal -100;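 active = significant combined selectivity score with lowered wild-type GFP, culture density cut under 30%, mutant RFP and density less affected; inactive = any of these conditions unmet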; note: one replicate is shown; some compounds called inactive have numbers as strong as hits
FGF22 binding: binders of recombinant human FGF22 by thermal shift; Q9HCT0; SYPRO orange fluorescence; percent of sucrose octasulfate shift, DMSO zero; calls only at 9.99 µM; 340,000 compounds, 1.5% hits; AID 651658;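 active = melting point raised past a set limit in the mean and every replicate; inconclusive = no clear call; three in four hits are not shown here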
Target sequence (Q9HCT0 whole entry, looked up): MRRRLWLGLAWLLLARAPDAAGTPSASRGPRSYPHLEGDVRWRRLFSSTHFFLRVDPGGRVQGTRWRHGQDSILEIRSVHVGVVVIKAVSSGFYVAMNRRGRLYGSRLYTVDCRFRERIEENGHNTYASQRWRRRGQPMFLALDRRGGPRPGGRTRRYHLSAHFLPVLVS
T cruzi repl: blocks replication of Trypanosoma cruzi | AID 1885 | T. cruzi beta-gal in NIH3T3, luminescence, 90 h | inhibition, % (test concentration not listed) | 300,000 compounds, 1.4% hits;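 active = mean inhibition across valid replicates above about 55%, limit read from the data; inconclusive = mean below that limit but half or more replicates reach it; inactive = mean below it, under half of replicates reach it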;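 note: signal also drops with host cell toxicity which is not excluded here; 0% = plate median of DMSO wells and 100% = zero luminescence signal; higher percent means less beta-gal luminescence so fewer parasites; stock transfer was 50 nL into about 50 µL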
Beta apoptosis: beta cell apoptosis inhibition | INS-1E cytokine-induced death, ATP luminescence, 48 h; percent of positive-control rescue, neutral wells zero | protection from apoptosis, % (concentration not given with the values) | 300,000 compounds, 0.8% hits | AID 435005;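 active = all replicates at 75% or more, or half of them and the mean; inconclusive = half reach 75% but not the mean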;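 note: 0% = cytokine-treated negative control wells and 100% = positive control rescue; higher means more ATP so stronger rescue from cytokine killing; wells of about 40 µL received 100 nL stock; the first replicate is given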
Ecoli rRNA inh OD600: second read-out of Ecoli rRNA inh, no call of its own (marks repeat the call); OD600 change, %; measured here: OD600 growth;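 optical density of the mix in the first replicate; 0 = DMSO median and -100 = no signal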
Ecoli rRNA inh RFP: second read-out of Ecoli rRNA inh, no call of its own (marks repeat the call); RFP signal change, %; measured here: RFP humanized mutant strains;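 first replicate; 0 = DMSO median and -100 = no signal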
* hit, by the source's call; i = inactive; ? = inconclusive; nt = not tested or not shown. These rows are one share of the data, so the mix of outcomes need not match the whole.

A first look, 2 compounds:
SMILES	Ecoli growth	A1 inh	MLL AF4-AF9 inh	UCH37 DUB inh	Ecoli rRNA inh	Ecoli rRNA inh OD600	Ecoli rRNA inh RFP	FGF22 binding	T cruzi repl	Beta apoptosis
COc1cc(O)c(C(CC(=O)N2CCCC(C)C2)c2cc(OC)c(OC)c(OC)c2)c(OC)c1 (centres undefined)	0.71	2.3	5.0	1.5	6	-1	0.6	i	-3	-6
Cc1ccc(CN2CC(=O)N3[C@H]4c5cc(Cl)ccc5OC[C@@H]4[C@H](c4ccccc4)[C@]3(C)C2=O)cc1	nt	-0.8	-1.3	0.2	15	6	6.5	i	nt	14

All compounds of this part, from the first entry:
SMILES	Ecoli growth	A1 inh	MLL AF4-AF9 inh	UCH37 DUB inh	Ecoli rRNA inh	Ecoli rRNA inh OD600	Ecoli rRNA inh RFP	FGF22 binding	T cruzi repl	Beta apoptosis
COc1cc(O)c(C(CC(=O)N2CCCC(C)C2)c2cc(OC)c(OC)c(OC)c2)c(OC)c1 (centres undefined)	0.71	2.3	5.0	1.5	6	-1	0.6	i	-3	-6
Cc1ccc(CN2CC(=O)N3[C@H]4c5cc(Cl)ccc5OC[C@@H]4[C@H](c4ccccc4)[C@]3(C)C2=O)cc1	nt	-0.8	-1.3	0.2	15	6	6.5	i	nt	14
COc1ccc(NS(=O)(=O)c2cc(NC(=O)C3=NN(c4ccccc4)C(=O)CC3)ccc2OC)cc1	0.71	-0.2	0.6	-1.2	11	-2	1.5	i	nt	3
CCCCOC(=O)c1ccc(NC(=S)NC(=O)c2c(Br)c(C)nn2C)cc1	0.73	0.2	-33	4.3	13	9	-6.7	i	-5	-7
C=CCNC(=O)COc1ccc(S(=O)(=O)NC2CCCCC2)cc1	0.73	-0.4	-35	-0.5	2	-4	0.6	i	-4	-6
Cn1c(CO)cnc1S(=O)(=O)Cc1ccc([N+](=O)[O-])cc1	0.71	0.0	nt	4.7	nt	nt	nt	nt	-18	6
Cn1c(Cc2cccs2)nnc1SCC(=O)Nc1ccc(F)cc1F	0.61	-0.5	-4.1	-0.4	2	3	-0.8	i	2	1
Cc1ccc(C(=O)Cn2c(C)cc(C)c(C#N)c2=O)cc1	0.71	-0.3	nt	5.2	nt	nt	nt	nt	-4	-1
COc1ccc(OC)c(C(C(=O)NC2CCCCC2)N(C(=O)c2ccccn2)c2cccnc2)c1 (centres undefined)	0.66	0.6	-2.6	-0.7	7	3	-2.4	i	-3	5
CN(Cc1cnn(C)c1)C(=O)C1CCC(=O)N(Cc2ccc(Cl)cc2)C1 (centres undefined)	0.69	-0.4	-1.1	-1.2	-3	-9	0.4	i	0	-4
CN(C)c1ccc(/C=C(\NC(=O)c2ccccc2)C(=O)N/N=C/c2ccc(C(=O)O)cc2)cc1	nt	0.2	4.7	nt	4	5	-1.3	i	-19	-9
Cc1ccc[n+](CC(=O)Nc2nc3ccccc3s2)c1	0.71	-0.1	-1.2	-0.6	5	-5	0.3	i	-22	-2
Cc1c(C(=O)OC2CCCC2)[nH]c2c1C(=O)CC(c1ccco1)C2 (centres undefined)	0.7	1.7	-3.8	-0.7	-11	-14	0.2	i	22	43
COc1cc(CC(=O)OCC(=O)Nc2cccc([N+](=O)[O-])c2)cc(OC)c1OC	0.66	-0.1	0.5	-0.6	nt	nt	nt	i	-4	-4
Cc1ccc(C)n1CCN1CCN(C(=O)CC#N)CC1	0.68	1.5	-10	-0.1	15	15	6.0	i	1	-6
O=C(c1ccccc1)N1CCN(CC(O)COc2ccc(Br)cc2)CC1 (centres undefined)	0.66	0.6	-2.3	4.7	-10	-8	-3.7	i	11	0
Cc1ccc(S(=O)(=O)N(C)c2ccc(C(=O)NCc3ccccc3F)cc2)cc1	0.7	0.0	-2.0	3.1	-12	-19	0.1	i	26	-2
CSc1ccc(/C=C(\NC(=O)c2ccc(C)cc2)C(=O)NN)cc1	0.66	0.9	-1.7	2.6	18	4	3.9	i	-8	-7
CN(C)S(=O)(=O)c1ccc(C(=O)OCn2nnc3ccccc3c2=O)cc1	0.73	-0.3	-0.9	4.9	-1	-12	1.0	i	-6	-7
CCCCn1c(N)c(N(CC(C)C)C(=O)C2CCC2)c(=O)[nH]c1=O	0.66	0.6	-9.2	2.0	nt	nt	nt	i	nt	-3
Cc1cccc(C(=O)N[C@H](C(=O)NCCc2ccc(Cl)cc2)C(C)C)c1	0.69	0.3	-4.7	-0.4	4	-5	0.3	i	-8	1
COc1ccccc1CNC(=O)COC(=O)/C=C/c1ccc(OC(F)F)c(OC)c1	0.71	-1.2	1.3	-0.8	6	8	1.4	i	5	nt
COc1cccc(/C(O)=C2/C(=O)C(=O)N(Cc3ccco3)C2c2ccncc2)c1 (centres undefined)	0.73	0.5	nt	14	nt	nt	nt	nt	-2	-7
Cc1cccc(NC(=O)c2cc(-c3ccccn3)nc3ccccc23)c1C	nt	0.1	0.3	nt	-21	-23	-1.2	i	-5	nt
COc1ccc(CCNC(=O)C2CC(c3ccc(C(F)(F)F)cc3)=NO2)cc1 (centres undefined)	0.62	-0.9	3.6	2.9	1	7	-4.5	i	-38	-7
O=C(Nc1nc2ccccc2[nH]1)c1ccc(F)cc1	0.67	-14	-25	-7.3	8	11	-3.6	i	-8	24
COc1ccc(NC(=O)CN2CCN(S(=O)(=O)c3ccc(F)cc3)CC2)cc1Cl	0.74	-1.0	nt	3.7	nt	nt	nt	nt	7	-7
CCCc1sc(N2CCCC(C(N)=O)C2)nc1-c1ccccc1 (centres undefined)	0.67	-1.8	nt	-0.4	nt	nt	nt	nt	0	-3
O=C(NCCN1CCCCC1)c1ccco1	0.76	-0.8	nt	3.1	nt	nt	nt	nt	-17	-3
CSc1ccccc1NC(=O)C1CC(c2ccccc2O)=NO1 (centres undefined)	0.71	1.7	nt	-0.3	nt	nt	nt	nt	-2	nt
COc1ccc(-c2nn(-c3ccccc3)cc2C(=O)N(C)CC(=O)Nc2ccc(N3CCOCC3)cc2)cc1	0.69	-0.4	-6.9	-0.5	5	10	0.6	i	-2	-4
Cc1cc(C(=O)OCC(=O)Nc2cc(S(=O)(=O)N(C)C)ccc2C)c2ccccc2n1	0.72	-1.0	-41	1.1	-3	-5	-0.9	i	-4	-1
COc1ccccc1-n1cnnc1SCC(=O)NCc1cccs1	0.72	0.6	nt	0.7	nt	nt	nt	nt	2	-8
COc1ccc(S(=O)(=O)N(C(=O)c2ccco2)c2cc3sc(=O)oc3c3ccccc23)cc1	0.68	1.4	-4.5	3.5	-13	5	11	i	-10	98*
CCC(CC)c1nnc(NC(=O)c2cc([N+](=O)[O-])ccc2N2CCCCC2)s1	0.73	0.2	9.5	4.2	19	6	0.8	nt	23	-3
CCCCOc1ccc(C(=O)Nc2ccc(N3CCN(C(C)=O)CC3)cc2)cc1	0.68	-0.1	nt	-31	nt	nt	nt	nt	3	nt
CCOc1ccc(NC(=S)N(CCOC)C(C)c2ccco2)cc1 (centres undefined)	0.66	0.6	-5.9	2.6	3	-4	-1.4	i	-16	0
COc1ccc(Br)cc1CN(C)CC(=O)Nc1cc(Cl)cc(Cl)c1	0.67	0.5	nt	-6.6	nt	nt	nt	nt	52	14
N#Cc1ccc(-c2ccccc2)nc1SCC(=O)c1cc2ccccc2oc1=O	0.74	-0.1	nt	-2.7	nt	nt	nt	nt	-5	1
O=c1[nH]c2cc3c(cc2cc1CN(Cc1ccco1)C(=S)NCCCN1CCOCC1)OCCO3	0.73	0.4	7.0	-64	-2	-12	-3.3	i	-1	2
Cc1cc(C)cc(OCC(=O)NNC(=O)C2CCCO2)c1 (centres undefined)	0.68	1.0	-0.3	1.1	13	14	4.9	i	-4	-2
NC(=O)C1CCN(C(=O)COc2ccc3c(c2)oc(=O)c2ccccc23)CC1	0.76	-0.1	-2.0	-339	nt	nt	nt	i	-7	-5
CN(C)c1ccc(NC(=O)c2ccc3nc[nH]c3c2)cc1	0.67	-0.2	2.4	7.1	2	10	10	i	3	3
CCN(CC)c1ccc(Nc2nc(N3CCOCC3)c3ccccc3n2)cc1	0.64	-0.1	nt	3.1	nt	nt	nt	nt	44	69
O=C(O)CN1C(=O)C2(OCCO2)c2cc(Br)ccc21	0.68	?	3.7	1.6	nt	nt	nt	i	nt	nt
CCCS(=O)(=O)N1CCn2c(nc3ccccc32)C1	0.67	0.1	-7.6	7.2	5	-4	-0.7	i	-5	-1
CN(c1ccccc1C(=O)N1CCN(c2ccccc2)CC1)S(C)(=O)=O	0.68	-1.6	nt	-0.8	nt	nt	nt	nt	-6	1
O=C(NCc1n[nH]c(=S)n1-c1cccc(C(F)(F)F)c1)c1ccco1	0.7	1.6	-0.3	0.2	4	3	-2.4	i	-2	-4
O=C(OCc1ccccc1F)c1cc2ccccc2cc1O	0.71	0.0	1.7	2.7	4	-2	-3.2	i	8	-1
C#CCOCCOCCOCCNc1nc(N2CCN(C(=O)[C@H](CCCCN)n3cc([C@@H](N)[C@H](C)CC)nn3)CC2)nc(N2CCN(C(=O)[C@H](CCC(=O)O)n3cc([C@@H](N)CCSC)nn3)CC2)n1	0.68	-0.1	2.5	4.5	27	14	3.2	i	nt	-6

More entries
SMILES	Ecoli growth	A1 inh	MLL AF4-AF9 inh	UCH37 DUB inh	Ecoli rRNA inh	Ecoli rRNA inh OD600	Ecoli rRNA inh RFP	FGF22 binding	T cruzi repl	Beta apoptosis
Cc1ccc(S(=O)(=O)N2CCOCC2)c(C)c1NS(C)(=O)=O	0.71	0.6	nt	2.0	nt	nt	nt	nt	-10	-9
CCOC(=O)CSc1nc2sc3c(c2c(=O)[nH]1)CC(C)(C)OC3	0.74	-0.1	nt	3.7	nt	nt	nt	nt	-7	-2
COc1ccc(C(=O)N(c2ccccn2)C2CCCCC2)c(OC)c1	0.69	0.6	-0.2	-0.9	2	-4	2.9	i	27	0
CCCCC(=O)Nc1ccccc1C#N	0.68	0.5	nt	1.1	nt	nt	nt	nt	2	3
COc1ccccc1N1CCN(C(=O)c2cc(C)on2)CC1	0.7	-0.5	-2.5	4.6	6	18	0.1	i	-13	-2
Cc1cc(C)c(S(=O)(=O)NCCCn2ccnc2)c(C)c1	0.64	-0.4	nt	0.6	nt	nt	nt	nt	-26	-4
CN(CC(=O)N1CCN(c2ccccn2)CC1)S(=O)(=O)c1cccc2nsnc12	0.69	0.5	nt	5.5	nt	nt	nt	nt	-1	3
Cc1ccc(N(CC(=O)NCC2CCCO2)C(=O)CCC(=O)Nc2ccccn2)cc1 (centres undefined)	0.67	0.4	0.3	0.6	8	7	0.5	i	14	-2
CC(C)N(C(=O)CSc1nnc(Cn2nnc3ccccc32)n1C)C(C)C	0.77	0.3	nt	-0.8	nt	nt	nt	nt	-14	-10
